Six1-Eya2 inh: qHTS Assay for Inhibitors of the Six1/Eya2 Interaction; Homeobox protein SIX1 (Homo sapiens) + Protein phosphatase EYA2 (Homo sapiens), …; AlphaScreen GST-Six1/His-Eya2 binding, biochemical; hits give low values; control for the full effect not named in the record; activity change, % (concentration not given with the values); 360,000 tested, 0.56% active; in the data active = activity change below about -65%; inconclusive = about -30% to -65%; inactive = above about -30%; note: % is set by controls: 0 for no effect and ±100 for the full control effect
Target sequence (O00167 whole entry, looked up): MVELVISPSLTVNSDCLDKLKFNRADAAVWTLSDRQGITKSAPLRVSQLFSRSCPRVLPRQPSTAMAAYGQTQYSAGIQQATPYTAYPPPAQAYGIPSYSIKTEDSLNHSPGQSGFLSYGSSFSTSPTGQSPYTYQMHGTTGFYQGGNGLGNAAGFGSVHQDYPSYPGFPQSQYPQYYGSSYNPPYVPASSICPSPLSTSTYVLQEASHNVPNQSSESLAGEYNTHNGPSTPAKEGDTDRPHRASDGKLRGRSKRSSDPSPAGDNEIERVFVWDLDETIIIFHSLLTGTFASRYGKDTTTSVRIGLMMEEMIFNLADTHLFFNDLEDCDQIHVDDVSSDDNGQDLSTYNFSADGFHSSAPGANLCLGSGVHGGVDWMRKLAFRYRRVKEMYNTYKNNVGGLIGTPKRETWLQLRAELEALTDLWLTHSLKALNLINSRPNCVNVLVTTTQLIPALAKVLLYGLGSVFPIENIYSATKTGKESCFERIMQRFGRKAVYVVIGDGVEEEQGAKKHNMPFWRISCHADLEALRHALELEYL
Target sequence (Q15475 whole entry, looked up): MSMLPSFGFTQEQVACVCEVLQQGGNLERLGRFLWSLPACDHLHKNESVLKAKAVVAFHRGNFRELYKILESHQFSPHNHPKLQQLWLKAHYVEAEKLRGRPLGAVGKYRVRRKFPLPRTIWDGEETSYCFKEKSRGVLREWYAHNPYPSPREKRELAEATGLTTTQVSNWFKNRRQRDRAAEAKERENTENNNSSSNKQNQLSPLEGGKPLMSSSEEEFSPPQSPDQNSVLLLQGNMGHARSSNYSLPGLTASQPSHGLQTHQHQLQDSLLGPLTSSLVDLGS
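AlphaScreen luminescence read after one hour at 37 °C in darkness. Pin-transferred compounds met GST-Six1 and His-Eya2 protein (5X stock 250 nM/500 nM) plus glutathione donor and Ni-chelate acceptor beads (5X, 50 ug/mL).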
TRPML1 blocker: qHTS for Inhibitors of the Human Mucolipin Transient Receptor Potential 1 (TRPML1) | Mucolipin-1 (Homo sapiens), Q9GZU1 | AID 624415, 2012 | TRPML1-inducible cells, Ca2+ dye fluorescence, FDSS; hits give low values; inhibition of EC80 agonist-evoked calcium signal | 390,000 tested, 0.02% active | activity change, negative = inhibition, % (no concentration beside the values); in the data active means activity change below about -50%; inconclusive means about -30% to -50%; inactive means above about -30%;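 note: stimulus is agonist 54-4 at its EC80 concentration; % is set by controls: 0 for no effect and ±100 for the full control effect; compound concentration not given in the record; the text of the record puts the active cut at -80%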
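Tet-induced TRPML1-DL cells loaded with Ca8 no-wash calcium dye were read kinetically on FDSS. Compound addition was followed by EC80 agonist 54-4 (4 uM final); inhibition was read over 110 s.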
CtBP-E1A inh: qHTS Assay for Inhibitors of the CtBP/E1A Interaction; 340,000 tested, 0.49% active; activity change, % (concentration not given with the values); AlphaScreen GST-E1A/His-CtBP binding, 1536-well; hits give low values; control for the full effect not named in the record; in the data active means activity change below about -65%; inconclusive means about -30% to -65%; inactive means above about -30%; note: % is set by controls: 0 for no effect and ±100 for the full control effect
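GST-E1A and His-tagged CtBP (125 nM each as 5X stock) were preincubated with pin-transferred compound for 2 h at 37 °C in the dark, then glutathione donor and nickel acceptor beads were added for 1 h before AlphaScreen reading.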
D2 agonist: Beta-Arrestin HTS for Positive Allosteric Modulators of the Human D2 Dopamine Receptor: Agonists. D(2) dopamine receptor (Homo sapiens), P14416. DiscoveRx PathHunter D2 beta-arrestin, luminescence, 90 min; 100% = 57 uM dopamine signal. activation, % (concentration not given with the values). 360,000 tested, 0.084% active; in the data active = activation above about 40%; inconclusive = about 15% to 40%; inactive = below about 15%; note: compound concentration not given in the record; the text of the record calls up to 30% inactive
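DiscoveRx PathHunter D2 beta-arrestin cells (2,100/well) attached overnight, then compound-stimulated 90 min at 37 C in HBSS/10 mM HEPES/0.1% Tween-20 buffer; beta-galactosidase complementation read by luminescence after 1 h at ambient temperature. Dopamine 57 uM final (EC100) as control.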
PINK1 expr mod: A Quantitative High throughput Screen to Identify Chemical Modulators of PINK1 Expression. PINK1 immunofluorescence, high-content cytometry, 24 h. Potency, µM (titrated, usually from 76.6 µM), without a hit: top-dose activation (PINK1 increase), actives largely listed as activators. 410,000 tested, 0.2% active; active = well fitted activation curve with a large enough effect; inconclusive = small, poorly fitted or top-dose-only effect; inactive = flat fitted curve, though single readings scatter; cell line not stated here;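 note: potency is the fitted concentration of half-maximal effect; % of control where 0% means no effect; nearly all actives have a fitted effect of over 65% in size; a mitochondrial uncoupler was the plate control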
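Readout is PINK1 immunofluorescence, quantified alongside mitochondrial, cell and nuclear markers by laser-scanning microplate cytometry. Cells from a stable line were exposed to compound titrations (5 concentrations) for 24 hours, with CCCP controls.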
TRPML1 ag: qHTS for Agonists of the Human Mucolipin Transient Receptor Potential 1 (TRPML1). Mucolipin-1 (Homo sapiens), Q9GZU1. TRPML1-expressing cells, Ca2+ dye fluorescence, FDSS; host cell line not named in the record; reference of the full effect not given here. activation, % (no concentration beside the values). 410,000 tested, 0.12% active. AID 624414, 2012; in the data active = activation above about 50%; inconclusive = about 30% to 50%; inactive = below about 30%; note: 0% is about no effect; the text of the record puts the active cut at 80%
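Kinetic FDSS Ca2+ read in Tet-induced TRPML1-DL cells (ABD Ca8 dye plus quencher, 45-90 min RT loading): baseline, then compound, then 110 s agonist window; EC80 agonist 54-4 at 4uM final added afterwards for a 110 s antagonist window.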
* = called active by the depositor; u = inconclusive; x = no result given; [ ] = another dose, or the depositor's remark.

smiles,Six1-Eya2 inh,TRPML1 blocker,CtBP-E1A inh,D2 agonist,PINK1 expr mod,TRPML1 ag
Oc1oc(-c2ccccc2)nc1C=NCc1ccncc1,-8,-8,0,-2.6,-4.2%,-0.5
COc1ccc(N2CCN(CCC3Oc4cc([N+](=O)[O-])ccc4NC3=O)CC2)cc1 (stereo not given),-18,-11,u,0.6,1.0%,0.3
COc1cc(C(=O)NCC(=O)NCCSc2ccc(Br)cc2)cc(OC)c1OC,-5,4,4,2.6,2.3%,1.6
C=CCn1c(SCC(=O)N2CCN(C(=O)c3ccco3)CC2)nc2sc(CC)cc2c1=O,-2,14,-6,0.7,0.6%,1.6
CSc1ccc(S(=O)(=O)NCC(=O)OCC(=O)N(C)CC(=O)Nc2ccc(F)cc2)cc1[N+](=O)[O-],-1,15,-7,9.6,-0.8%,-0.4
Oc1ccccc1-c1nc(NCc2ccco2)c2ccccc2n1,-2,28,-4,-1.5,1.7%,1.5
O=c1[nH]c(S)c(/C=C2\C=Nc3ccccc32)s1,-20,4,-21,-6.3,-0.2%,4.2
Cc1cccc(C)c1NC(=O)c1cccc(COc2cc(Cl)ccc2Cl)c1,9,1,-1,1.1,11%,0.2
Cc1ccc(CNC(=O)c2ccccc2NC(=O)CSc2nnnn2C)cc1,-1,9,0,-5.1,0.9%,-0.6
O=C(Nc1cccc2ccccc12)c1[nH]c(-c2ccccc2)c2c1C(=O)N(C1CC1)C2=O,0,x,1,-2.9,8.4%,-0.7
S=C(NCC1CCCO1)N1CCN(c2cccc(Cl)c2)CC1 (stereo not given),3,2,x,-2.8,-1.2%,1.0
N#Cc1ccc(CSc2nnc(NC(=O)C3CCCO3)s2)cc1 (stereo not given),23,0,0,0.2,-1.5%,0.6
CN(CC(O)COc1ccc(S(=O)(=O)N2CCOCC2)cc1)C1CCCCC1 (stereo not given),4,25,-2,-2.8,6.3%,0.6
CCCC(=O)Nc1cccc(NC(=O)c2cccc([N+](=O)[O-])c2C)c1,-4,-6,3,-2.7,-1.7%,1.2
CCN(CC)C(=O)c1[nH]cnc1C(=O)NC1CCN(C(=O)OC(C)(C)C)CC1,2,1,0,0.2,-0.7%,-0.1
CCOc1ccc(N(C)S(=O)(=O)c2ccc3[nH]cc(C(=O)NCC4CCCO4)c(=O)c3c2)cc1 (stereo not given),-1,-11,-2,2.2,-0.6%,-0.5
COc1cc2oc(=O)cc(CN3CCN(c4ccc(Cl)c(Cl)c4)CC3)c2cc1Cl,-2,6,2,-3.8,0.2%,-0.6
CC(C)[C@H](NS(=O)(=O)c1ccccc1)C(=O)Nc1ccccc1N1CCOCC1,-1,-4,24,-4.4,-0.2%,0.2
CC(=O)Nn1cc2c(=O)n(C)c(=O)n(C)c2c1,1,-6,5,-3.0,-4.4%[38.3 µM],0.2
Cc1ccc(S(=O)(=O)N2CCOCC2)cc1C(=O)NC1=NCCS1,3,6,-2,-4.6,1.2%,-0.3
CCN(CC)C(=O)c1cn(CCC#N)nc1-c1ccc(F)cc1,2,-14,-2,-0.7,4.6%,-0.4
COc1cc(/C(C)=N/NC(=O)Cc2c(C)[nH][nH]c2=O)ccc1O,-5,6,-3,0.1,0.9%,2.1
CSc1nsc(SCc2ccc(Cl)cc2)n1,70,-1,80,0.1,4.1%[38.3 µM],2.5
N#CC1=C(C2CC2)CC(c2ccccc2)C(C#N)=C1N (stereo not given),-12,5,8,-3.5,-1.0%,-0.2
Cc1cc(=O)oc2cc(OCC(=O)OCC(=O)Nc3ccccc3Br)ccc12,-22,-9,-3,-2.9,-1.0%,1.3
COc1c(C)cc(Br)cc1C(=O)NC(=S)Nc1ccc(Cl)c(C(=O)O)c1,-11,-2,-2,6.0,1.2%,3.1
Cc1cccc(C)c1NC(=O)CN1CCN(C(=O)C2CCC2)CC1,6,11,0,-2.8,2.7%,-0.1
COc1ccc(C2C3=C(CC(C)(C)CC3=O)Oc3ncn4nc(-c5ccccc5)nc4c32)cc1 (stereo not given),7,-8,-3,0.5,2.6%,0.7
COC(=O)c1c(NC(=O)COc2ccc(Cl)cc2)sc2c1CC(C)(C)NC2(C)C,-6,52,-12,-6.4,-1.7%,1.2
CC(=O)Nc1ccc(NC(=O)CSc2ccc(-c3ccc4c(c3)OCO4)nn2)cc1,-1,-1,-4,-1.1,5.5%,-0.9
COc1ccc(-c2cc(=O)oc3cc(OC(C)C(=O)NCc4ccccn4)ccc23)cc1 (stereo not given),-4,x,-10,-4.8,1.3%,x
CN(C)c1ccc(CNC(=O)CN2C(=O)CSc3ccc(S(=O)(=O)N4CCCC4)cc32)cc1,x,28,x,x,-0.2%,0.7
Cc1cc(C(F)(F)F)cc(NNC(=O)NC(=O)c2c(F)cccc2Cl)n1,-3,-3,17,1.0,-0.7%,2.4
CC(C)CCN1C(=O)c2cccc3c(N)ccc(c23)C1=O,27,-12,31,4.2,u,89*
O=C(NCc1cccnc1)c1ccc2c(c1)OCO2,3,1,-2,-2.3,0.4%,-0.7
O=C(O)/C=C/c1ccc(S(=O)(=O)N2CCCCCC2)cc1,3,31,7,5.1,-0.2%,3.7
Cc1nc(-c2ccccn2)nc(SCC(=O)c2ccccc2)c1Cl,-4,-23,-11,-4.1,1.2%,2.3
NC(=O)CS(=O)(=O)c1nc2ccccc2n1Cc1ccccc1F,3,-15,-11,-4.2,1.9%,1.2
Cc1ccc(CCNC(=O)CS(=O)Cc2nc(-c3ccccc3C)oc2C)cc1 (stereo not given),x,9,x,x,-1.9%,1.3
CCOc1cc(CNCc2ccccn2)ccc1OCC(=O)NC1CCCCC1,u,-2,-29,-3.6,-2.3%,-0.3
CC(=O)N1CCc2c(sc(NC(=O)C3CCCCC3)c2C(N)=O)C1,0,-4,-2,-4.4,1.7%,-0.8
CC(C)n1c(C(=O)OCC(=O)NCc2ccc3c(c2)OCO3)cc2occc21,-18,9,0,0.7,-4.2%[38.3 µM],2.8
COc1ccc(CCNC(=O)CN(C)S(=O)(=O)c2ccc3c(c2)CCC(=O)N3)cc1OC,-13,-6,-4,-1.4,-0.1%,-1.0
COc1cc(NS(=O)(=O)c2ccc(OC)c(OC)c2)cc(OC)c1,-1,-6,0,1.0,-3.4%[38.3 µM],0.3
COc1ccc(OC)c(NC(=O)CSC2=Nc3ccccc3C3=NC(CC(=O)NCCc4ccccc4)C(=O)N23)c1 (stereo not given),x,-11,x,x,0.3%,1.7
Cc1cc(C(=O)CSc2nnc3ccccn23)c(C)n1-c1ccccc1,-8,-10,6,-2.1,8.1%,0.3
COc1ccc(Cl)cc1NC(=O)c1ccc2c(SCC(=O)O)c3c(nc2c1)CCCC3,0,6,0,-5.5,3.4%,-0.3
Cc1ccccc1CSc1ccc(-c2cccs2)nn1,x,-16,x,x,1.3%,1.4
CC(=O)Nc1ccc(Nc2nc(C)c([N+](=O)[O-])c(Nc3ccccc3)n2)cc1,u,-2,-28,3.2,4.8%,-0.1
O=c1cc(O)c2sc3nc4c(c(C(F)(F)F)c3c2[nH]1)CCCCC4,-5,-4,3,-1.1,0.9%,-0.3

Entries shown so far with a CF3 group:
smiles,Six1-Eya2 inh,TRPML1 blocker,CtBP-E1A inh,D2 agonist,PINK1 expr mod,TRPML1 ag
Cc1cc(C(F)(F)F)cc(NNC(=O)NC(=O)c2c(F)cccc2Cl)n1,-3,-3,17,1.0,-0.7%,2.4
O=c1cc(O)c2sc3nc4c(c(C(F)(F)F)c3c2[nH]1)CCCCC4,-5,-4,3,-1.1,0.9%,-0.3

Following part:
smiles,Six1-Eya2 inh,TRPML1 blocker,CtBP-E1A inh,D2 agonist,PINK1 expr mod,TRPML1 ag
CCC(=O)N(c1nnc(SCC(=O)Nc2ccc(N3CCOCC3)cc2)s1)C1CC1,0,14,10,1.3,2.8%,2.0
CCn1c(CCC(=O)O)nc2cc(S(=O)(=O)N(C)C)ccc21,8,-7,-2,-0.9,-1.7%,-0.3
O=C1CCC(C(=O)N2CCCC(N3CCN(c4cccc(C(F)(F)F)c4)CC3)C2)=NN1 (stereo not given),4,18,3,10,1.7%,-0.1
CCc1ccc(-c2cc(C)no2)cc1S(=O)(=O)N1CCN(c2ccccc2)CC1,-18,67,-17,-2.4,9.3%,-0.9
CN(C)c1ccc(CNn2cnnc2SCc2ccccc2F)cc1,-13,-10,-11,1.3,-0.4%[38.3 µM],0.4
COc1ccccc1OCCCCN1CCC(C)CC1,1,17,0,-2.2,-0.6%,-0.8
O=C(NCc1cccc(F)c1)c1cccc2c1C(=O)c1ccc(N3CCOCC3)cc1S2(=O)=O,3,-1,7,-0.7,u,2.2
CCOC(=O)C1CCCN(C(=O)c2ccc(Cl)c(S(=O)(=O)N3CCCCC3)c2)C1 (stereo not given),1,11,-14,-0.7,-0.8%,2.1
Cn1c2nc3ccccc3c-2nc2ccccc21,-28,-9,-13,-4.3,0.2%,-0.8
Cc1ccc2[nH]c(C)c(CCN(Cc3cccnc3)C(=S)NC(C)(C)C)c2c1,-11,16,4,-1.7,-0.1%,-1.2
O=C(Nc1ccccc1)c1sccc1Oc1ccc([N+](=O)[O-])cc1F,u,18,u,3.7,-1.7%,1.6
COc1ccc(Cl)cc1NC(=O)CSc1nccn1-c1ccc(Cl)cc1,x,66,x,x,-1.7%,1.4
CC(C)Oc1ccc(S(=O)(=O)N2CCOCC2)cc1NC(=O)Cc1cccs1,6,-1,-2,0.3,0.7%,3.6
c1ccc(COc2ncnc3c2ncn3CCCNCC(c2ccccc2)c2ccccc2)cc1,-1,x,-22,-3.0,-1.4%,x

Four entries from above, arranged by count of non-hydrogen atoms, low to high.
smiles,Six1-Eya2 inh,TRPML1 blocker,CtBP-E1A inh,D2 agonist,PINK1 expr mod,TRPML1 ag
COc1ccccc1OCCCCN1CCC(C)CC1,1,17,0,-2.2,-0.6%,-0.8
CCn1c(CCC(=O)O)nc2cc(S(=O)(=O)N(C)C)ccc21,8,-7,-2,-0.9,-1.7%,-0.3
O=C(Nc1ccccc1)c1sccc1Oc1ccc([N+](=O)[O-])cc1F,u,18,u,3.7,-1.7%,1.6
O=C1CCC(C(=O)N2CCCC(N3CCN(c4cccc(C(F)(F)F)c4)CC3)C2)=NN1 (stereo not given),4,18,3,10,1.7%,-0.1
